ClpP mod: qHTS Assay for Activators of ClpP; Potency, µM (series often up to 57.5 µM), without a hit: top-dose activity change, negative = active; ATP-dependent Clp protease proteolytic subunit (Bacillus subtilis (strain 168)), P80244; 1.9% of 340,000 active; purified B. subtilis ClpP, FRET peptide cleavage, 20 min; AID 651965, 2013; active = well fitted falling curve with a large enough effect; inconclusive = small, poorly fitted or top-dose-only effect; inactive = no such curve, though single readings can be large or run the other way; further: potency means the concentration at half of the fitted maximal effect; the source files actives as falling curves though it sought activators and does not explain the sign; nearly all actives have a fitted effect of over 65% in size; many hits overshoot -100%
Target sequence (P80244 whole entry, looked up): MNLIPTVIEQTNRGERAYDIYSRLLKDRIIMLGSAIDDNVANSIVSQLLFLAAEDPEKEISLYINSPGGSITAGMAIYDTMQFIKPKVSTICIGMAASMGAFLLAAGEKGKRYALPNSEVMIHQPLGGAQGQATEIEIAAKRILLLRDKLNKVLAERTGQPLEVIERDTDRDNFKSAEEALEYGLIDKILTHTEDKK
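ClpP 10 microg/mL final, pH 8 Tris/KCl buffer with BSA, glycerol, Tween-20; compound pinned in; FRET-FV substrate; RT 20 min; Ex320/Em430; ΔFRET vs ADEP 5.8 microM, DMSO, no enzyme.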
CtBP-E1A blk: CtBP/E1A binding inhibition; AlphaScreen GST-E1A/His-CtBP binding, 1536-well; stronger effect = lower value; control for the full effect not named in the record; activity change, % (concentration not given with the values); 0.49% of 340,000 active; AID 651724; in the data active means activity change below about -65%; inconclusive means about -30% to -65%; inactive means above about -30%; further: on the % scale 0 is the no-effect control and ±100 the full control effect
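In 5 uL wells, 23 nL compound meets equimolar GST-E1A and His-CtBP (5X stock 125 nM each) for 2 h, 37 °C. Beads (5X, 50 ug/mL) then 1 h, 37 °C, dark.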
Numbers without * were called inactive; ? = inconclusive. This is a subset; count on the stated rates, not on these rows.

SMILES	ClpP mod	CtBP-E1A blk
CC1(C(=O)NCc2ccccc2)CCC(=O)N1CC(F)(F)F (stereo unspecified)	2.7%	12.3
CC(=O)NC(c1cccc(F)c1)c1nc(-c2ccc3ccccc3c2)cs1 (stereo unspecified)	-2.1%	-2.0
COCCNC(=O)c1sc(=O)n(Cc2ccc(SC)cc2)c1C	1.8%	1.4
Cn1nc(C(C)(C)C)cc1C(=O)N1CCCCC1c1cc(C(=O)Nc2ccccc2Cl)no1 (stereo unspecified)	-4.2%	-24.8
NC(=O)c1c(N)[nH]c(C(=O)c2ccccc2)c1-c1ccncc1	-2.4%	1.0
Cc1ccc(C=C(C#N)C(=O)c2ccccc2)cc1	-6.1%	0.0
COc1ccc(Sc2ccc(NC(=O)c3cccc(Cl)c3)cc2C#N)cc1	?	3.0
NC(COCc1ccccc1)c1csc(Nc2ccc(C(=O)NCCO)cc2)n1 (stereo unspecified)	-22.2%	-6.8
CCOC(=O)C1(C)CCCCCN1C(=O)c1ccc(Cl)nc1 (stereo unspecified)	0.2%	31.4
CCCCNC(=O)c1nc(C2CCNCC2)oc1-c1ccccc1	-5.8%	2.6
O=S1(=O)N[C@@H](Cc2ccccc2)COc2cccc(N3CCC[C@@H]3CO)c21	-5.3%	-24.7
CC1=C(C(=O)N2CCCCCC2)CC(CC(=O)NC2CCCC2)C(=O)N1Cc1ccc(C(C)(C)C)cc1 (stereo unspecified)	1.7%	18.8
COc1ccc(OC(=O)N(C)C[C@@H]2OCc3cn(nn3)CCCC(=O)N([C@H](C)CO)C[C@H]2C)cc1	-0.7%	7.3
CCOC(=O)C1=NOC2(C1)C(=O)Nc1ccc(OC)cc12 (stereo unspecified)	1.8%	0.8
CCCCN(C(C)=O)c1c(CC)nc2ccc(C(=O)NCCc3ccccn3)cn12	?	-21.4
O=C(Nc1ccc2c(c1)OCO2)C1Cc2c(-c3ccccc3Oc3ccccc3)ccnc2O1 (stereo unspecified)	-7.9%	-23.7
Cc1ccc(S(=O)(=O)N2[C@H](CC(=O)c3ccccc3)OC[C@@H]2C)cc1	1.8%	4.3
O=C(NC1CCCC1)C(c1ccccc1)n1c(-c2cccc3ccccc23)nc2ccccc21 (stereo unspecified)	3.6%	4.2
O=C(c1cc(-c2ccccc2)on1)N(Cc1cccnc1)C(c1ccccn1)c1nc2ccccc2[nH]1 (stereo unspecified)	-5.3%	-15.6
CCC(=O)N1CCCC(C)(C(=O)NS(=O)(=O)c2cccs2)C1 (stereo unspecified)	-0.9%	0.7
NC(c1csc(Nc2ccccn2)n1)C1CCCCC1 (stereo unspecified)	-1.6%	-79.7*
CCCS(=O)(=O)NC(=O)C1(C)CCN(C(=O)c2cc(C(C)(C)C)nn2C)C1 (stereo unspecified)	2.6%	4.3
COc1cccc(C(NC(C)=O)c2nc(-c3cnn(C)c3)cs2)c1 (stereo unspecified)	0.7%	8.3
O=C(Nc1cc(Br)ccc1F)c1nc[nH]c1C(=O)NCc1ccccc1	181.2%	1.7
Oc1ccc(F)c(CN2CCN(c3ncc(Cc4ccccc4)cn3)CC2)c1	-0.1%	20.3
CCCOc1ccc(F)cc1-c1cc(C(=O)NCc2ccccc2)[nH]n1	-8.4%	0.8
CCCCn1nnnc1C1(C)CCC(=O)N1Cc1cccs1 (stereo unspecified)	0.8%	4.3
CCc1ccc([C@@H]2CC(=O)[C@@H]3CN(S(=O)(=O)c4ccccc4C)[C@H](c4ccc(Cl)cc4)C[C@@H]3N2S(=O)(=O)c2ccc(C)cc2)cc1	-2.1%	-9.4
Cc1ccccc1-c1cnc(C(O)c2ccc(F)cc2)[nH]1 (stereo unspecified)	-1.8%	0.9
COC(=O)C1=CN(c2cccc(OCc3ccccc3)c2)C(N)=C(C#N)C1c1cccc(OC)c1OC (stereo unspecified)	-24.6%	3.0

Record cards (already shown). Screens in order: ClpP mod | CtBP-E1A blk
CCCOc1ccc(F)cc1-c1cc(C(=O)NCc2ccccc2)[nH]n1 is entered as -8.4% | 0.8
NC(c1csc(Nc2ccccn2)n1)C1CCCCC1 (stereo unspecified) is entered as -1.6% | -79.7*
Cc1ccccc1-c1cnc(C(O)c2ccc(F)cc2)[nH]1 (stereo unspecified) is entered as -1.8% | 0.9
O=C(Nc1ccc2c(c1)OCO2)C1Cc2c(-c3ccccc3Oc3ccccc3)ccnc2O1 (stereo unspecified) is entered as -7.9% | -23.7

More entries follow.
SMILES	ClpP mod	CtBP-E1A blk
O=C(Nc1cccn2nc(COCCO)nc12)C(c1ccccc1)c1ccccc1	-3.7%	-20.9
C[C@H](O)[C@@H]1CN2CCc3c([nH]c4ccccc34)[C@@H]2C[C@@H]1N(C)C(=O)OCc1ccccc1	?	-22.5
COC(=O)c1nc(-c2ccc(C)cc2)[nH]c1C(C)(C)C	-6.8%	-27.8
CC(C)(C(=O)N1CCC1(C)C(=O)NC1Cc2ccccc2C1)c1ccccc1 (stereo unspecified)	0.7%	1.3
COc1ccc(NC(=O)C2(C)CCN2C(=O)c2ccc(C(C)(C)C)cc2)cc1OC (stereo unspecified)	-1.4%	-3.1
Cc1ccc(S(=O)(=O)NC(=O)C2(C)CCN2C(=O)c2cccc(F)c2)nc1 (stereo unspecified)	-0.2%	-21.0
CN(Cc1cnn(-c2ccc(F)cc2)c1)C(=O)[C@H]1O[C@@H](n2ccc(=O)[nH]c2=O)[C@H](O)[C@@H]1O	-0.9%	2.9
O=C(NCc1ccccc1)C(c1ccc(-c2ccccc2)cc1)n1c(=O)c(-c2cc3ccccc3[nH]2)nc2ccccc21 (stereo unspecified)	35.8%	11.8
NC(Cc1ccc(C(F)(F)F)cc1)c1csc(Nc2cc(NCc3ccco3)ncn2)n1 (stereo unspecified)	-8.4%	-24.5
O=C(NCc1ccco1)c1cccc(-c2cncc3nccn23)c1	4.4%	1.6
CN(Cc1ccccc1)C(c1ccnc2ccccc12)c1nnnn1-c1ccc2c(c1)OCCO2 (stereo unspecified)	-0.8%	-10.8
COc1ccc([C@@H]2CC(=O)[C@@H]3CN(S(=O)(=O)c4ccc(Cl)cc4)[C@H](c4ccc(C)cc4)C[C@@H]3N2S(=O)(=O)c2ccccc2)cc1	-3.5%	-14.3
Cn1ccc2c(-c3cccc(C=O)c3F)cc3c(c21)C1CCC3C1 (stereo unspecified)	12.0%	8.4
Cn1cnc(S(=O)(=O)N2CCCC(c3cc(C(=O)Nc4ccc(F)c(Cl)c4)no3)C2)c1 (stereo unspecified)	-2.9%	0.6
CCOC(=O)[C@]12CCCC=C1N(Cc1cccc3ccccc13)C(=O)[C@H](CC(=O)N1CCCCC1)C2	-2.1%	-0.9
CC(C)CNC(=O)C1(C)CCCN1C(=O)c1cc2ccccc2s1 (stereo unspecified)	-0.4%	0.0
CCCCn1nnnc1C1(C)CCC(=O)N1Cc1cc(OC)ccc1OC (stereo unspecified)	-0.4%	7.6
COc1ccc(N2C(=O)c3ccccc3NC(=O)C2C(=O)NCc2ccco2)cc1 (stereo unspecified)	-6.2%	3.3
Cc1cc(C)cc(C(O)c2ncc(-c3cccc(F)c3)[nH]2)c1 (stereo unspecified)	-0.4%	-12.6
CC(=O)c1ccc(OC2(C)CCN(Cc3cccn3-c3nccs3)C2)cc1 (stereo unspecified)	1.6%	-8.5
Cc1ccc(S(=O)(=O)NC(=O)C2(C)CCN2C(=O)COc2ccc(Cl)cc2)nc1 (stereo unspecified)	-3.8%	0.0
C=CCNc1ncnc2c1ncn2[C@H]1CN(Cc2ccco2)C[C@@H](CO)O1	0.7%	8.8
CC(=O)c1cccc(-c2ccnc3c2CC(C(=O)Nc2ccccc2)O3)c1 (stereo unspecified)	2.8%	18.0
CCOC(=O)C1=C[C@@H](C(C)C)N(S(=O)(=O)c2ccc(C)cc2)[C@H]1c1ccc(C(F)(F)F)cc1	0.4%	1.5
COc1cc(OC)nc(Nc2nc(C(N)c3ccccc3)cs2)n1 (stereo unspecified)	-1.0%	?
CC(C)(C)NC(=O)C1c2ccccc2OCC(=O)N1C1CC1 (stereo unspecified)	-0.1%	4.7
Nc1sc(Cc2ccccc2)cc1C(=O)NC1CCCCC1	-17.9%	-12.8
O=C(c1ccc(Cl)c(Cl)c1)N1CCC(=O)N([C@H](COCc2ccccc2)Cc2ccccc2)CC1	1.8%	-9.3
CN(C)c1ccc(-c2ccnc3c2CC(C)(C(=O)NCC2CCOCC2)O3)cc1 (stereo unspecified)	5.2%	-5.9
OC(c1ccccc1)(c1ccccc1)C1CCN(CCCOc2cccc(OC(F)(F)F)c2)CC1	3.3%	-0.5
CCCN(CCC)Cc1cc(=O)oc2cc(C)c(C)cc12	-6.7%	2.8
O=S1(=O)N[C@@H](Cc2ccccc2)COc2cc(N3CCC[C@H]3CO)ccc21	-5.7%	7.9
CCCNC(=O)c1cc(C2CCCCN2C(=O)c2ccc(OC)cc2)on1 (stereo unspecified)	1.4%	0.8
CN(CCc1ccccc1)C(=O)c1[nH]c(C(F)(F)F)nc1-c1ccccc1	0.6%	-15.6
O=C(NC1CCCCC1)C(c1ccccc1F)n1c(=O)c(-c2cc3ccccc3[nH]2)nc2ccccc21 (stereo unspecified)	4.1%	24.5
CC1OC(C(C)(C)C)CC2=C1C(=O)OC(C)(C)O2 (stereo unspecified)	0.8%	4.8
CCOC(=O)C1(C)CCCN(C(=O)c2c(F)cccc2F)C1 (stereo unspecified)	-0.1%	-1.8
CCOC(=O)C1=CCN(S(=O)(=O)c2ccc(C)cc2)C1c1cccc(C)c1 (stereo unspecified)	-0.5%	4.9
CN(c1cc2c(c3c1ccn3C)C1CCC2O1)C1CCCCC1 (stereo unspecified)	-5.9%	-23.8
COC(=O)C1=CN(c2ccc(N3CCOCC3)cc2)C(N)=C(C#N)C1c1cccc(OC)c1OC (stereo unspecified)	-12.0%	-8.3
O=C(NC1CCCCC1)C(c1ccc(C(F)(F)F)cc1)n1c(=O)c(-c2ccccc2)nc2ccccc21 (stereo unspecified)	4.5%	3.9
Brc1cccc(-c2nc3c4ccccc4ccn3c2CC2CCCCC2)c1	-2.9%	8.8
NC(c1ccccc1)c1csc(NC(=O)NCCc2ccccc2)n1 (stereo unspecified)	-5.6%	?
CC(=O)Nc1cccc(-c2ccnc3c2CC(C(=O)NCCc2ccccc2)O3)c1 (stereo unspecified)	-26.4%	-8.4
CCCS(=O)(=O)NC(=O)C1(C)CCN(C(=O)c2cccc(OC(F)(F)F)c2)C1 (stereo unspecified)	-2.9%	-15.2

Pulled one by one from the entries so far (2):
SMILES	ClpP mod	CtBP-E1A blk
CCOC(=O)C1(C)CCCN(C(=O)c2c(F)cccc2F)C1 (stereo unspecified)	-0.1%	-1.8
COc1cccc(C(NC(C)=O)c2nc(-c3cnn(C)c3)cs2)c1 (stereo unspecified)	0.7%	8.3

(list continues)
SMILES	ClpP mod	CtBP-E1A blk
CCCc1nc2ccc(Cl)cn2c1Cc1cccc(Cl)c1	-22.3%	-5.1
O=S1(=O)CC(N2CCN(CCO)CC2)CN1C1CCCCC1 (stereo unspecified)	-3.4%	12.5
CCCS(=O)(=O)NC(=O)C1(C)CCN(C(=O)COc2ccccc2)C1 (stereo unspecified)	-1.9%	-0.7
CCCCCNC(=O)C1C(=O)Nc2ccccc2C(=O)N1c1ccc(OC)cc1 (stereo unspecified)	-1.1%	1.6
O=C(NCC(F)(F)F)c1cc2c(c(-c3cccc(-c4ccccc4F)c3)n1)[C@H](CCO)N(C(=O)CC1CC1)C2	0.1%	0.3
CC(=O)NC(c1cccc(F)c1)c1nc(/C=C/c2ccccc2)cs1 (stereo unspecified)	-4.4%	-18.4
CN(C)C(=O)c1cccc(-c2cnc3c(NC=O)cc(-c4ccccc4N(C)C)cn23)c1	-5.7%	-10.8
OC(c1ccccc1)c1ncc(-c2cccc(C(F)(F)F)c2)[nH]1 (stereo unspecified)	4.7%	-7.5
COCCCn1cc(CN2CC(N3CCCC3)CS2(=O)=O)nn1 (stereo unspecified)	-2.1%	-9.3
Cc1ccc(NC(=O)C2(C)CCN2C(=O)Cc2ccccc2Cl)cc1C (stereo unspecified)	-5.3%	-15.4
Nc1nc2ccc(Cl)cc2cc1C(=O)NCCc1ccc(O)cc1	-23.7%	-13.1
CC(C)(C)NC(=O)C(c1ccc(C#N)cc1)n1c(=O)c(-c2ccccc2)nc2ccccc21 (stereo unspecified)	3.8%	0.0
CC1(C(=O)NS(=O)(=O)c2ccc(C#N)cc2)CCN1C(=O)c1ccccc1CCc1ccccc1 (stereo unspecified)	-0.9%	-2.5
CC(=O)Oc1ccccc1Cn1c(C)c(C(=O)NCc2ccccc2C(F)(F)F)sc1=O	-0.5%	-7.7
Cc1cccc(C)c1Cn1c(C)c(C(=O)NCCC#N)sc1=O	-3.1%	4.4
CCc1ccc2c(c1)NC(=O)C2(C)Cc1ccc(OC(F)(F)F)cc1 (stereo unspecified)	-1.9%	10.2
Cc1noc(C)c1S(=O)(=O)NC(=O)C1(C)CCN1C(=O)C1(c2ccc(Cl)cc2)CC1 (stereo unspecified)	-2.3%	3.7

Structural class, those above with two or more sulfur atoms.
SMILES	ClpP mod	CtBP-E1A blk
COCCNC(=O)c1sc(=O)n(Cc2ccc(SC)cc2)c1C	1.8%	1.4
CCC(=O)N1CCCC(C)(C(=O)NS(=O)(=O)c2cccs2)C1 (stereo unspecified)	-0.9%	0.7
CCc1ccc([C@@H]2CC(=O)[C@@H]3CN(S(=O)(=O)c4ccccc4C)[C@H](c4ccc(Cl)cc4)C[C@@H]3N2S(=O)(=O)c2ccc(C)cc2)cc1	-2.1%	-9.4
COc1ccc([C@@H]2CC(=O)[C@@H]3CN(S(=O)(=O)c4ccc(Cl)cc4)[C@H](c4ccc(C)cc4)C[C@@H]3N2S(=O)(=O)c2ccccc2)cc1	-3.5%	-14.3
